Env fusion inh: inhibitors of HIV-1 Env-driven cell-cell fusion, primary screen, HeLa-JRFL effector, CEM21 target cells, luciferase; inhibition, % at 12.3 µM; actives 1.1% (n = 360,000); AID 651610, 2012;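 active = mean replicate inhibition score of at least 50 and every replicate individually at or above 50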;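 also: 0% = plate neutral controls and 100% = maraviroc near 300 nM; one replicate is shown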
UUG fidelity: modulators of yeast start codon fidelity, primary screen, whole organism, S. cerevisiae, single point, plate reader; actives 0.13% (n = 350,000); activity score, % at 18.7 µM; S. cerevisiae UUG-firefly luciferase reporter, luminescence/redox ratio;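 active = replicate mean at a twofold rise or more, about +100% in these data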;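 also: firefly luciferase made from a UUG start codon reports start codon fidelity; reporter light over untreated wells divided by growth signal over untreated wells; some hits fall short of that in this replicate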
PABP polyA inh: PABP poly(A) RNA binding inhibitors, primary screen, biochemical, fluorescence polarization, uHTS; inhibition, % at 35 µM; actives 1% (n = 290,000); Polyadenylate-binding protein 1 (Homo sapiens), P11940; AID 2014, 2009;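 active = 50% or more with normal probe brightness, or confirmed in later tests; about a fifth of its hits are not listed in these tables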;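 also: calls also rest on retests at 20 µM and on dose response follow-up; controls were probe without protein and protein plus probe with vehicle; some compounds called inactive have numbers as strong as hits; many hits fall short of the cut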
Target sequence (P11940 whole entry, looked up): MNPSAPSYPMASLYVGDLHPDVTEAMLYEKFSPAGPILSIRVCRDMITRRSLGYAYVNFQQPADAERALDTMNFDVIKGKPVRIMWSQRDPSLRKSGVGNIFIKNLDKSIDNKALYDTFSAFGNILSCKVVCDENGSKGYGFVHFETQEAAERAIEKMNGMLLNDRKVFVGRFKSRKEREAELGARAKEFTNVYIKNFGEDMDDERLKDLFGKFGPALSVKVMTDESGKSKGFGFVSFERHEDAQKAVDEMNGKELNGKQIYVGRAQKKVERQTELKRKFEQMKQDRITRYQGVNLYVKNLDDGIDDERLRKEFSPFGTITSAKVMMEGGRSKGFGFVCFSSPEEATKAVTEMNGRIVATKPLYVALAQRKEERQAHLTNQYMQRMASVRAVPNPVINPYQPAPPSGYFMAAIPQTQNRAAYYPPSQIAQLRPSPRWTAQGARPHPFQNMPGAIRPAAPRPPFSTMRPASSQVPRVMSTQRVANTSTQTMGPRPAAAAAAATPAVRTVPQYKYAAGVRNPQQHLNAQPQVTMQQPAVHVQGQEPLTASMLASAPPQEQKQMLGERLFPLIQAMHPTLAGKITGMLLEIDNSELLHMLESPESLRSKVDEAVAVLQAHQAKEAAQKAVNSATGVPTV
eIF4H FP inh: human eIF4H binding inhibitors, primary screen, translation initiation inhibitor project, biochemical, uHTS, fluorescence polarization | inhibition, % at 35 µM | actives 0.94% (n = 290,000) | AID 2012, 2009 | eIF4H fluorescence polarization binding assay;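 active = 50% or more with normal probe brightness, or confirmed in later tests; about a fifth of its hits are not listed in these tables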;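 also: calls also rest on retests at 20 µM and on dose response follow-up; 0% = protein and probe with vehicle and 100% = probe without protein; strong numbers were not always called active; many hits fall short of the cut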
Rce1 inhib: yeast Rce1p protease inhibitors, primary screen, biochemical, fluorescence, cell-free homogeneous. yeast membranes, quenched prenylated peptide cleavage fluorescence. CAAX prenyl protease 2 (Saccharomyces cerevisiae (strain ATCC 204508 / S288c)), Q03530. actives 0.27% (n = 290,000). calls only. AID 2563, 2010;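 active = fall in fluorescence gain of 50% or more versus controls, with final raw signal at or below 3038400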;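 also: plate controls were neutral control wells for no effect and wells lacking membranes for full effect; tested at 10 µM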
MT1-MMP act inh: blockers of MT1-MMP proenzyme processing, primary screen, HT1080 RFP-PRO-GFP cells, GFP/RFP fluorescence | GFP/RFP ratio change, % at 20 µM | AID 651647, 2012 | actives 0.061% (n = 360,000) | Matrix metalloproteinase-14 (Homo sapiens), P50281 | GFP/RFP ratio fluorescence, overnight; percent of plate control window, DMSO zero;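 active = GFP/RFP ratio change of at least 30% with cell ATP level not reduced by more than half and red fluorescence within 50% of control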; also: strong numbers were not always called active
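Test system: HT1080 cells expressing an RFP-PRO-GFP fluorescent reporter construct / Compound dosing: single-point 20 µM compound, 1% DMSO / Schedule: cells overnight before dosing, compound overnight, 37 °C, 5% CO2 / Evaluation: GFP/RFP fluorescence ratio / Control set: DMSO and RFP-L50D-GFP cell wells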
CSC inhib: cancer stem cell viability inhibitors, primary screen, luminescence; cancer stem cell-like cells viability; inhibition, % at 7.5 µM; actives 1.1% (n = 300,000); AID 2717, 2010;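 active = mean at 75% or more and at least half the replicates too; tested in HMLE shEcad cells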;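 also: 0% = median of negative and 100% = median of positive control wells; the first replicate is given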
eIF4H FP inh retest: second read-out of eIF4H FP inh, no call of its own (marks repeat the call); inhibition, %; compound at 20 µM; confirmation average;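 mean of two retest wells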
PABP polyA inh retest: further read-out of PABP polyA inh, marked with its call; inhibition, %; compound at 20 µM; confirmation repeats;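 mean of two retest wells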
MT1-MMP act inh RFP: further read-out of MT1-MMP act inh, marked with its call; RFP signal change, %; measured here: RFP expression control read;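 0 = vehicle wells; hits needed this value within 50% of zero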
An asterisk follows results filed as active; i = inactive; . = not tested or not shown.

SMILES | Env fusion inh | UUG fidelity | PABP polyA inh | eIF4H FP inh | Rce1 inhib | MT1-MMP act inh | MT1-MMP act inh RFP | CSC inhib | others
O=C(CCN1C(=O)C2C3C=CC(C3)C2C1=O)NCC1CCCO1 (stereo unspecified) | . | -13 | 3 | 1 | i | 0 | 4 | -5
COc1ccc(CCNC(=O)/C=C/c2ccc(C)cc2)cc1OC | -7 | -12 | -1 | 5 | i | 2 | 1 | -16
Nc1nonc1/C(=N/O)N1CCCC1 | -67 | -2 | -6 | -3 | i | -3 | -1 | -10
C/C=C/c1ccc(OCCCCNCc2ccco2)c(OC)c1 | 26 | -17 | 84* | 8.0* | i | 4 | 5 | -5 | eIF4H FP inh retest=95*;PABP polyA inh retest=84*
Cc1[nH]c2c(C(=O)N3CCCC(CCC(=O)NCc4ccccc4F)C3)cccc2c1C (stereo unspecified) | -10 | -7 | 5 | 1 | i | 1 | -3 | 5
C=CCN1C2CCCC1CC(NC(=S)Nc1ccc(Cl)cc1)C2 (stereo unspecified) | 11 | . | 1 | -13 | i | 1 | 3 | 2
CCC(=O)Oc1ccc2c(C)c(Cl)c(=O)oc2c1 | -307 | -11 | 3 | 6 | i | 0 | 0 | .
Cc1cnc(CNC(=O)c2ccc3oc(C(C)C)nc3c2)[nH]1 | 7 | -6 | 6 | -4 | i | -2 | -1 | 3
COc1ccc(OCCCSc2ncccn2)cc1 | . | -19 | 9 | -6 | i | 6 | -8 | 6
Cc1ccc(-c2nc(N)sc2C)cc1 | -5 | . | -10 | 4 | i | -3 | -2 | -12
Cc1ncoc1C(=O)NC1CC(C)(C)Cc2c1cnn2-c1ccc(F)cc1 (stereo unspecified) | 12 | -2 | 0 | -11 | i | -2 | 0 | 7
COc1cccc(N2CC(NC(=O)C(=O)c3c[nH]c4ccccc34)CC2=O)c1 (stereo unspecified) | 5 | 19 | . | . | i | 3 | 5 | .
O=C(COC(=O)c1cccc(S(=O)(=O)NCc2ccccc2)c1)NCC1CCCO1 (stereo unspecified) | 3 | 8 | -1 | -4 | i | 1 | 3 | -15
COc1cccc(C(=O)NC(=S)N2c3ccccc3CC2C)c1OC (stereo unspecified) | 20 | -15 | 1 | 11 | i | 3 | 2 | -8
O=c1c2ccccc2oc2cc(-c3ccc4cc[nH]c4c3)ccc12 | -112 | -17 | . | . | . | 3 | -3 | 40
Cc1cc2cc3c(cc2nc1SCC(=O)N1CCOCC1)OCO3 | 18 | -6 | -3 | 2 | i | 0 | -1 | .
CCc1cccc2c1NC1(CCCC1)CC2C (stereo unspecified) | -1 | -15 | 2 | -7 | i | 8 | 12 | 13
CN(C)S(=O)(=O)c1cc(NC(=O)[C@H](Cc2ccccc2)N2C(=O)c3ccccc3C2=O)ccc1Cl | -10 | . | 9 | -4 | i | 1 | 0 | 9
O=C1Nc2ccccc2C1=NN1CCCCCC1 | -20 | -16 | . | . | . | 0 | 4 | .
CCOC(=O)c1cnc(SC)nc1Oc1cccc(NC(=O)c2cccc(Cl)c2Cl)c1 | . | 4 | 2 | -2 | i | -1 | 1 | 5
CCn1cc(C(=O)OC)c(=O)c2cc(S(=O)(=O)N(C)C3CCCCC3)ccc21 | 6 | 6 | 4 | -7 | i | 2 | 2 | -13
CCC(C(=O)NCc1ccco1)N(C(=O)CNS(=O)(=O)c1ccc(F)cc1)c1ccccc1F (stereo unspecified) | 13 | -9 | 11 | -1 | i | 1 | -2 | -3
COc1ccc(C(=O)CSc2nnc(CN3CCCC3)n2-c2ccc(F)cc2)c(OC)c1 | 1 | . | 7 | -14 | . | -5 | -5 | -8
O=C(OCC(=O)N1CCCC1=O)c1ccc(Cl)cc1[N+](=O)[O-] | 1 | 9 | . | . | i | 0 | 2 | -13
Cc1ccc(OCc2cc(C(=O)N3CCN(C)C[C@@H]3c3ccccc3)no2)cc1C | -51 | 1 | 6 | 3 | i | -3 | -6 | -8
CCC(C)(c1ccc(C=O)s1)c1ccc(C=O)s1 | -8 | -4 | 0 | -8 | i | 0 | -1 | 2
Cc1cccc(C(=O)NCC(c2ccco2)N2CCc3ccccc32)c1 (stereo unspecified) | 2 | -14 | . | . | i | -1 | -1 | 11
COc1ccc(C(C)=O)c2c(O)cccc12 | . | -14 | 7 | 18 | i | -2 | 3 | -5
COc1ccc(CNC(=O)C/C(C)=N/NC(=O)C(c2ccccc2)c2ccccc2)cc1 | -7 | -18 | 2 | -10 | i | -13 | -9 | .
Cn1c(SCC(=O)N/N=C/c2ccc([N+](=O)[O-])s2)nnc1-c1ccc(Cl)cc1 | . | . | -4 | 30 | i | -1 | 5 | 59
CCN1C(=O)c2cccc3c(S(=O)(=O)NC(Cc4ccccc4)C(=O)O)ccc1c23 (stereo unspecified) | 8 | 0 | 5 | -1 | i | 0 | -1 | 4
Cc1nc(C(C)NC(=O)c2cc(COc3ccc(C)c(C)c3)on2)c(C)s1 (stereo unspecified) | -50 | -11 | -10 | -5 | i | 3 | 1 | -2
O=C(Nc1ccc2c3c(cccc13)CC2)c1cccc([N+](=O)[O-])c1 | 21 | . | 0 | 2 | i | 3 | 1 | 1
CCCn1cc(CN2CCC(C(=O)Nc3cccc(-c4cscn4)c3)CC2)c(C)n1 | 2 | 2 | 7 | -6 | i | -2 | 1 | 6
COc1cccc(NC(=O)C2(C)CCN2Cc2ccc(OC(C)C)cc2)c1 (stereo unspecified) | 9 | 6 | . | . | . | 0 | -4 | .
Cc1nnc2ccc(-c3ccc(NS(=O)(=O)c4ccc(F)cc4F)cc3)nn12 | -54 | -1 | . | . | i | 6 | 10 | 7
C=CCNC(=O)NC(=O)COC(=O)c1nc2nccc(C)n2n1 | 14 | -22 | -2 | 5 | i | 4 | 3 | -15
CCCCc1ccc(NS(=O)(=O)c2cccs2)cc1 | -31 | -13 | -6 | 2 | i | 1 | -5 | 18
COc1ccc(NC(=O)C(=O)NCCN2CCN(C(=O)c3ccco3)CC2)cc1 | -2 | . | -6 | -2 | i | 0 | 4 | -1
CC1(C(=O)NCc2ccc(F)c(F)c2)Cc2c(-c3cccc(C(N)=O)c3)ccnc2O1 (stereo unspecified) | -13 | 11 | . | . | . | -3 | -10 | .
CN1/C(=C\C(=O)COC(=O)c2nccnc2N)C(C)(C)c2ccccc21 | 58* | -6 | . | . | i | -2 | 7 | 6
CN(Cc1nccs1)C(=O)CC1C(=O)NCCN1Cc1ccc(-c2ccccc2)cc1 (stereo unspecified) | 8 | -10 | 0 | 2 | i | 2 | 5 | -13
O=C(CSc1ccc(C(F)(F)F)cc1[N+](=O)[O-])N1CCOCC1 | -4 | -12 | 13 | -3 | i | 2 | 3 | -15
CC(C)NC(=O)c1ccc2c3n(nc2c1)-c1ccccc1CO3 | -48 | -64 | 0 | -5 | i | 2 | 2 | 50
CC(C)(C)c1ccc(/C=N/NC(=S)NCc2ccccc2)cc1 | . | . | -1 | -5 | i | -3 | -3 | 3
O=C(c1cccc(F)c1)N1CCN=C1SCc1cccnc1 | 7 | 11 | -2 | -8 | i | 0 | 3 | -10
COc1ccccc1N1C(=O)c2ccc(C(=O)Nc3ccc(F)cc3)cc2C1=O | 14 | -19 | 10 | 4 | i | -3 | -2 | -12
CC1=NN(C(=O)COc2ccc(C)c(C)c2)C(O)(c2ccccc2)C1 (stereo unspecified) | 2 | . | 0 | -8 | i | 4 | 0 | 10
C/C(CC(=O)Nc1ccccn1)=N\NC(=O)c1cccc(C)c1 | 3 | . | -10 | -5 | i | 2 | 4 | -20
CCCCn1c(SCC(=O)Nc2cc(C)on2)nnc1-c1ccco1 | -2 | -8 | 3 | -8 | i | -2 | -2 | -8
Remaining list, next part
SMILES | Env fusion inh | UUG fidelity | PABP polyA inh | eIF4H FP inh | Rce1 inhib | MT1-MMP act inh | MT1-MMP act inh RFP | CSC inhib | others
CC(=O)N1CCN(S(=O)(=O)c2cccc(C(=O)NCCc3ccc(Cl)cc3)c2)CC1 | -2 | -15 | . | . | i | -4 | -3 | -5
Cc1cc(N(CC(=O)O)S(C)(=O)=O)ccc1Br | . | . | 6 | -8 | . | -4 | 5 | -2
Cc1ccc(NC(=O)C2c3ccccc3Oc3ccccc32)nc1 | 9 | -1 | 1 | 3 | i | -1 | -1 | 15
Cc1sc2ncnc(NCc3ccccc3)c2c1C | . | . | -6 | -9 | i | 0 | -22 | -21
CCOC(=O)c1ccccc1NS(=O)(=O)c1ccc(C)cc1 | -62 | 9 | -5 | 0 | i | 3 | -4 | 34
CC(C)Cn1c(SC(C)C(=O)NCC2CCCO2)nc2ccc(Cl)cc2c1=O (stereo unspecified) | . | -20 | . | . | . | 0 | -4 | -7

A portion of the results above, for reference:
SMILES | Env fusion inh | UUG fidelity | PABP polyA inh | eIF4H FP inh | Rce1 inhib | MT1-MMP act inh | MT1-MMP act inh RFP | CSC inhib | others
O=C(CSc1ccc(C(F)(F)F)cc1[N+](=O)[O-])N1CCOCC1 | -4 | -12 | 13 | -3 | i | 2 | 3 | -15
CC(C)NC(=O)c1ccc2c3n(nc2c1)-c1ccccc1CO3 | -48 | -64 | 0 | -5 | i | 2 | 2 | 50
CC(C)(C)c1ccc(/C=N/NC(=S)NCc2ccccc2)cc1 | . | . | -1 | -5 | i | -3 | -3 | 3
O=C(c1cccc(F)c1)N1CCN=C1SCc1cccnc1 | 7 | 11 | -2 | -8 | i | 0 | 3 | -10
COc1ccccc1N1C(=O)c2ccc(C(=O)Nc3ccc(F)cc3)cc2C1=O | 14 | -19 | 10 | 4 | i | -3 | -2 | -12
CC1=NN(C(=O)COc2ccc(C)c(C)c2)C(O)(c2ccccc2)C1 (stereo unspecified) | 2 | . | 0 | -8 | i | 4 | 0 | 10
C/C(CC(=O)Nc1ccccn1)=N\NC(=O)c1cccc(C)c1 | 3 | . | -10 | -5 | i | 2 | 4 | -20
CCCCn1c(SCC(=O)Nc2cc(C)on2)nnc1-c1ccco1 | -2 | -8 | 3 | -8 | i | -2 | -2 | -8
CC(=O)N1CCN(S(=O)(=O)c2cccc(C(=O)NCCc3ccc(Cl)cc3)c2)CC1 | -2 | -15 | . | . | i | -4 | -3 | -5
Cc1cc(N(CC(=O)O)S(C)(=O)=O)ccc1Br | . | . | 6 | -8 | . | -4 | 5 | -2
Cc1ccc(NC(=O)C2c3ccccc3Oc3ccccc32)nc1 | 9 | -1 | 1 | 3 | i | -1 | -1 | 15
Cc1sc2ncnc(NCc3ccccc3)c2c1C | . | . | -6 | -9 | i | 0 | -22 | -21
CCOC(=O)c1ccccc1NS(=O)(=O)c1ccc(C)cc1 | -62 | 9 | -5 | 0 | i | 3 | -4 | 34
CC(C)Cn1c(SC(C)C(=O)NCC2CCCO2)nc2ccc(Cl)cc2c1=O (stereo unspecified) | . | -20 | . | . | . | 0 | -4 | -7

Compounds were not picked by outcome; 2.9% or so of the library scored in one or more.
